Screening data (PubChem BioAssay)
Biofilm kill mix: mixtures killing C. albicans biofilm | C. albicans biofilm persisters + clotrimazole, fluorescence viability; primary screen in compound mixtures of four per well | inhibition, % at 7.6 µM | 0.02% of 120,000 active | AID 1242;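 active = inhibition above 30.3% in the primary screen of four-compound pools, then above 30% when the compound was retested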;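 note: compounds exposed to preformed 24 h biofilms for 48 h; the number belongs to the whole pool; some results filed as inactive read as strong as hits; inactives centre near 12; 0% = biofilm with clotrimazole alone and 100% = kill control; retested singly at about 60 µM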
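Assay system: C. albicans biofilms / Medium: RPMI/MOPS medium, pH 7.0 / Schedule: biofilm formation 24 h, compound exposure 48 h, 37 °C / Measured by: Alamar Blue fluorescence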
An asterisk follows results filed as active. Some of the compounds tested, so the mix of outcomes need not match the whole.

SMILES	Biofilm kill mix
CN1CCN(C(=S)c2cn(Cc3ccc(F)cc3)c3ccccc23)CC1	23.0
COc1cc(/C=N/NC(=O)c2cn(-c3cccc(C)n3)cn2)ccc1O	2.5
N#C/C(=C/c1cn(CC(=O)O)c2ccccc12)c1ccc(F)cc1	16.7
CCN(C(=O)COC(=O)c1cc(-c2ccccc2)nc2c1c(C)nn2-c1ccc(C)cc1)C1CCS(=O)(=O)C1 (configuration not stated)	15.8
COc1ccccc1OCC(=O)NCCC1=CCCCC1	20.1
COc1ccc(CN2C(=O)NC3(CCCC3)C2=O)cc1F	3.0
CCOc1ccc(-n2c(=O)[nH]c3sc4c(c3c2=O)CCCC4)cc1	13.5
CCOc1cc2c(cc1OCC)C(c1ccccc1)N(c1ccc(C(=O)O)cc1)C(=O)C2 (configuration not stated)	12.8
CCOc1ccc(C2C3=C(Nc4nc(N)[nH]c(=O)c42)c2ccccc2C3=O)cc1 (configuration not stated)	22.9
Cc1cc(-c2ccc(Cl)cc2)n2ncnc2n1	19.5
CCOc1cc(/C=N/Nc2nc(Nc3ccccc3)nc(N3CCCCC3)n2)ccc1OCC(=O)O	3.5
O=C(NCC1CCCO1)c1ccccc1-c1nc(-c2ccccc2Cl)no1 (configuration not stated)	16.1
O=C(NCCOc1ccccc1)c1cc(C(=O)NCCOc2ccccc2)cc([N+](=O)[O-])c1	13.3
Cc1cc(NC(=O)c2ccccc2F)ncc1NC(=O)c1cccs1	17.6
CCCc1nn(C)c(C(N)=O)c1[N+](=O)[O-]	10.6
CN(C)NC(=S)Nc1ccc(S(=O)(=O)N2CCCCC2)cc1	15.5
COc1ccc(/C=C2/CCc3ccccc3C2=O)cc1OC	15.8
O=C(CCCO)NNc1c2ccccc2nc2ccccc12	14.0
Cc1ccc(C)c(OCC(=O)Nc2ccc(S(=O)(=O)Nc3ccccn3)cc2)c1	-0.5
COc1ccccc1OCC(=O)Nc1cc(Cl)ccc1Oc1ccccc1	14.4
Cc1cccc(N2CC(C(=O)OCc3ccc([N+](=O)[O-])cc3)CC2=O)c1 (configuration not stated)	29.1
COc1ccc(C(=O)OC(C)C(=O)Nc2cc(C(F)(F)F)ccc2Cl)c(OC)c1OC (configuration not stated)	11.7
Cc1nn(C)c(C)c1CN(Cc1nc(-c2cc(F)ccc2F)oc1C)C1CC1	11.0
CCC(CC)NC(=O)CC(c1ccccc1)c1ccccc1	5.8
CCc1ccc(S(=O)(=O)ON2C(=O)c3ccccc3C2=O)cc1	-6.8

In the list so far, two have a thiophene ring, fused or not.
SMILES	Biofilm kill mix
CCOc1ccc(-n2c(=O)[nH]c3sc4c(c3c2=O)CCCC4)cc1	13.5
Cc1cc(NC(=O)c2ccccc2F)ncc1NC(=O)c1cccs1	17.6

The list goes on:
SMILES	Biofilm kill mix
Cc1cc(C(=O)Nc2ccccc2N2CCOCC2)ccc1[N+](=O)[O-]	17.1
COc1ccc(S(=O)(=O)NNC(=O)c2ccccc2-n2cccc2)cc1	2.3
Cc1sc2c(c1C)C(O)=C(C(=O)Nc1ccccc1)S(=O)(=O)N2C	9.7
N#Cc1ccc(-c2cccnc2)nc1SCC(=O)c1ccccc1	14.9
CCOc1ccc(-c2c(C(=O)N/N=C/c3ccc(OC(C)C)cc3)nnn2-c2nonc2N)cc1	25.1
CNC(=S)N(CCc1c(C)[nH]c2ccc(C)cc12)Cc1ccco1	12.3
CCC(=O)N(Cc1c(C)nn(-c2ccccc2)c1Cl)c1ccc(Cl)cc1	17.0
C=CCOc1cccc(NC(=O)c2ccccc2SC)c1	6.0
O=C(COc1ccc(Cl)cc1Cl)Nc1c(-c2cccs2)nc2ccccn12	15.0
CCOc1ccc(N(CC(=O)NC2CCCCC2)C(=O)CSc2nnc(COc3ccccc3)o2)cc1	15.2
O=C(Cn1cncc1-c1ccc([N+](=O)[O-])cc1)Nc1cccc2ccccc12	17.1
COc1ccc(CNC(=S)Nc2ccc(-c3ccccc3)cc2)cc1	9.7
C=CCOc1ccc(CN(C)CC(=O)Nc2ccccc2[N+](=O)[O-])cc1	9.0
C=CCNC(=S)Nc1ccc(N2CCOCC2)c(S(=O)(=O)Nc2ccccc2Cl)c1	0.6
Cc1cc(CN(C)C(=O)CC2C(=O)NCCN2Cc2c(F)cccc2Cl)on1 (configuration not stated)	30.1
Cc1cc(C(=O)OCC(=O)Nc2cccc(S(=O)(=O)N(C)C)c2)c(C)o1	3.8
COc1ccc(-n2c(CNC(=O)COc3ccccc3)n[nH]c2=S)cc1	20.5
COc1ccc(-c2ccc(SCC(=O)N3CCN(c4ccccc4)CC3)nn2)cc1	1.6
NC(=S)N/N=C1\CCOc2ccc(Cl)cc21	20.0
Cc1cc([N+](=O)[O-])ccc1NC(=O)Nc1ccccc1F	15.6
Cc1[nH]nc(SCC(=O)Nc2cccc(O)c2)c1[N+](=O)[O-]	-0.2
COc1cc(C(=O)Nc2nc(-c3ccc(Cl)cc3)c(C)s2)ccc1OCC(=O)Nc1ccc(F)cc1	28.7
CCOC(=O)Cc1csc(NC(=O)/C=C/c2ccccc2Cl)n1	18.0
O=C(NCCC1=CCCCC1)c1cnc2n(c1=O)CCS2	9.6
O=C(O)c1ccc(CNCc2cccc(Cl)c2)cc1	19.3

Another view of some results above:
COc1cc(C(=O)Nc2nc(-c3ccc(Cl)cc3)c(C)s2)ccc1OCC(=O)Nc1ccc(F)cc1
  Biofilm kill mix: 28.7
CCOc1ccc(-c2c(C(=O)N/N=C/c3ccc(OC(C)C)cc3)nnn2-c2nonc2N)cc1
  Biofilm kill mix: 25.1
Cc1cc([N+](=O)[O-])ccc1NC(=O)Nc1ccccc1F
  Biofilm kill mix: 15.6
Cc1cc(C(=O)Nc2ccccc2N2CCOCC2)ccc1[N+](=O)[O-]
  Biofilm kill mix: 17.1

(more compounds)
SMILES	Biofilm kill mix
CCN(CC)S(=O)(=O)c1cccc(NC(=O)COc2ccc(F)cc2Br)c1	8.9
O=S(=O)(Cc1ccccc1)c1nc2ccccc2n1Cc1ccccn1	21.6
O=C(NCC1CCCN(C(=O)CN2CCCCC2)C1)c1ccccc1Cl (configuration not stated)	23.4
O=C1CCCN1CCCNC(=S)Nc1ccc(Br)cc1Cl	5.0
COc1cccc(/C=C(/CC(=O)Nc2ccc(N3CCOCC3)cc2)c2nc3ccccc3s2)c1	15.3
CCOc1ccc(N2CSC(=S)N(c3ccc(OCC)cc3)C2)cc1	21.7
CCOC(=O)c1ccc(NC(=O)NC2CC3CCC(C2)N3)cc1 (configuration not stated)	11.8
COc1ccc(C(=O)/C=C/Nc2ccccn2)c(OC)c1	21.6
O=C(N/N=C1\CCS(=O)(=O)c2ccc(F)cc21)c1ccc(O)cc1	-4.6
O=S(=O)(NCc1csc(-c2cccs2)n1)c1cccc(C(F)(F)F)c1	24.1
O=C(c1cccc(C(F)(F)F)c1)C1CCCN(C(=O)CN2CCCC2=O)C1 (configuration not stated)	17.4
Cc1ccc(-c2nn(-c3ccccc3)cc2NC(=O)c2ccccc2)cc1	13.6
COc1cc2oc(-c3ccc(O)cc3)cc(=O)c2c(O)c1OC	17.2
CC(C)(C)c1ccc(/C=C2\Oc3cc(OC(=O)N4CCOCC4)ccc3C2=O)cc1	14.4
Nc1cc(=O)[nH]c(SCC(=O)Nc2ccc3c(c2)CCC3)n1	17.4
Fc1ccc(-c2cc(C(F)(F)F)nc(-n3cccn3)n2)cc1	11.2
Oc1c(Br)cc(Br)cc1/C=N/NC(=S)N[C@H]1CC2C=CC1C2 (some centres not stated)	-0.4
N#C/C(=C\c1ccco1)C(=O)NCC1CCCO1 (configuration not stated)	17.5
COc1ccc(OC)c(Nc2nc(=O)c3cccnc3s2)c1	13.8
Cc1ccc(CC(=O)Nc2cccc([N+](=O)[O-])c2)cc1	16.8
O=C(Nc1nc(-c2ccc(Cl)cc2Cl)cs1)c1ccc(OCC2CCCO2)cc1 (configuration not stated)	9.6
COC(=O)Cc1ccc(NC(=S)Nc2ccccn2)cc1	16.7
CCOc1ccc(OCCC(=O)Nc2ccc(F)cc2C)cc1	-2.2
COC(=O)N/N=C/c1cn(Cc2c(Cl)cccc2Cl)c2ccccc12	13.8
Cc1ccccc1C(=O)NC(=S)N(C)CCc1ccccn1	7.2

The closing two compounds of the section before are carried over, then new ones follow.
SMILES	Biofilm kill mix
COC(=O)N/N=C/c1cn(Cc2c(Cl)cccc2Cl)c2ccccc12	13.8
Cc1ccccc1C(=O)NC(=S)N(C)CCc1ccccn1	7.2
CC(C)n1c(CCCO)nc2ccccc21	4.9
Cc1nn(C)c(C)c1/C=C/C(=O)c1ccc(Cl)cc1Cl	25.9
S=C(Nc1cccc(Cl)c1Cl)N1CCC2(CC1)OCCO2	9.3
O=C(CCS(=O)(=O)c1ccccc1)Nc1ccccc1-c1nc2ccccc2s1	18.0
COc1cccc(/C=N/Nc2nccnc2Cl)c1O	3.3
CC(C)(C)C(=O)/C(=C\c1cccc([N+](=O)[O-])c1)n1cncn1	13.7
CC1Cc2ccccc2N1C(=O)c1ccc(N2CCCC2)c([N+](=O)[O-])c1 (configuration not stated)	19.2
Cc1ccc2nc(NC(=O)CSc3nnc(C)c(=O)n3N)sc2c1	14.7
O=C(CSc1ccsc1[N+](=O)[O-])N1CCCCCC1	5.3
CCOC(=O)c1c(-c2ccc(F)cc2)csc1NC(=O)CCN1CCOCC1	14.4
O=C(COC(=O)c1cccc(C(F)(F)F)c1)NCc1ccccc1	8.4
CC(Nc1ccccc1)c1ccncc1 (configuration not stated)	16.5
CC(C)NC(=O)c1ccc(C(C)C)cc1	1.8
CCn1c(NCc2ccco2)nc2ccccc21	17.9
CSc1ncc(F)c(N(CCO)CCO)n1	9.7
CC(=O)c1cccc(N2C(=O)C3C4CCC(C4=C(C)C)C3C2=O)c1 (configuration not stated)	2.1
COC(=O)c1ccccc1NC(=O)NC1CCC(C)CC1 (configuration not stated)	-21.5
CCN(Cc1ccccc1)S(=O)(=O)c1cc(C(=O)NCCCN(C)C)ccc1OC	4.1
CC1(C)CCCC2=C1CC1C(=O)N(N)C(=O)C1C2 (configuration not stated)	16.9
Cn1c(=O)c2[nH]c(N3CCN(c4ccccc4)CC3)nc2n(C)c1=O	15.4
CC(NCC(O)COCCC12CC3CC(CC(C3)C1)C2)c1ccccc1 (configuration not stated)	11.1
CC(=O)N(CCC(Cc1ccccc1)c1ccco1)Cc1ccco1 (configuration not stated)	20.3
CCOc1ccc(/C=C/C(=O)CCC(=O)O)cc1	4.6
O=C(N/N=C/C=C/c1ccccc1)c1cccs1	3.8
CCOCCn1c(SCc2ccccc2)nc2c1c(=O)[nH]c(=O)n2C	13.4

(list continues)
SMILES	Biofilm kill mix
COc1cc(OC)c(NS(=O)(=O)c2cc(C(=O)OCC(=O)NCC3CCCO3)ccc2OC)cc1Cl (configuration not stated)	14.5
Cc1ccc(/C=N/NC(=O)C2(C)CC2(Br)Br)cc1 (configuration not stated)	12.2
Cc1ccc(NNc2c(C)nc3ccccc3nc2=O)cc1	12.3
Cc1ccc(S(=O)(=O)/N=c2\ccc(Cl)cn2C(F)F)cc1	23.1
O=C(Nc1ccccc1Cl)c1csc(-c2cccnc2)n1	30.0
Cc1sc2ncnc(NCC3COc4ccccc4O3)c2c1C (configuration not stated)	29.8
COc1ccccc1N1CCN(C(=O)CN2C(=O)c3cccc4cccc(c34)C2=O)CC1	21.8
CCC(CC)C(=O)Oc1c(Sc2ccccc2[N+](=O)[O-])c(C)nn1C(C)(C)C	11.6
Cc1ccc(N(CC(=O)N2CCCCC2)S(=O)(=O)c2ccc(C)cc2)cc1	3.1
CCCn1c(=N)c(C#N)cc2c(=O)n3ccccc3nc21	13.1
COc1cc(/C=N/NC(=S)Nc2cccnc2)cc(OC)c1OC	11.6
CC(C)(C)OC(=O)N1CCC[C@H]1c1nnc(SCc2ccc(Cl)cc2)o1	15.1
O=C(NC1CCS(=O)(=O)C1)c1cc(-c2ccccc2)nc2ccccc12 (configuration not stated)	-0.2
c1ccc2c(NC3=NCCCCS3)cccc2c1	9.1
O=C(c1ccccc1)N1CCN(c2ccc([N+](=O)[O-])cc2-n2cccc2)CC1	14.6
COc1ccc(/C=C/C(=O)OCCCN(C)C)cc1	6.6
O=C(Nc1nccs1)c1cccc(NC(=O)C(F)(F)F)c1	2.0
COc1cc2c(=O)n(Cc3ccccc3)c(=O)n(CC(=O)C(C)(C)C)c2cc1OC	13.4
CC(=O)Nc1cccc(NC(=O)c2cc(-c3cccnc3)nc3ccc(Cl)cc23)c1	21.8
COc1ccc(NC(=O)c2ccc(-c3ccccc3)cc2)cc1NS(=O)(=O)c1ccc(F)cc1	13.8
CCOC(=O)CN1C(=O)N[C@@H](c2ccccc2)C(C(=O)OC)=C1C	0.9
CCOC(=O)c1ccc(NC(=S)Nc2cc(C)cc(C)n2)cc1	-2.1
Cc1cc(C(=O)Nc2ccc(OCc3ccccc3)cc2)c(C)o1	7.1
COc1ccc(NC(=S)NCCCN2CCCC2)cc1	9.0
Cc1[nH]c2ccccc2c1C(=O)CN1C(=O)NC(C)(c2ccc(Cl)cc2Cl)C1=O (configuration not stated)	-2.2

Going on with the list:
SMILES	Biofilm kill mix
CC(=O)Nc1c(C)ccc(CNC(=O)COc2cc(C)ccc2C)c1C	23.3
COc1ccc(C)cc1NS(=O)(=O)c1ccc(NC(=O)CN(c2cc([N+](=O)[O-])ccc2C)S(C)(=O)=O)cc1	14.3
CC1=C/C(=C\C=C(C#N)C#N)N(C)c2ccccc21	14.0
COc1ccc(NS(=O)(=O)c2ccc(NC(=S)NC(=O)c3ccc(Br)cc3)cc2)nn1	6.8
CCOC(=O)C1CCCN(C2CC(=O)N(c3ccc(NC(C)=O)cc3)C2=O)C1 (configuration not stated)	18.6
CCNC(=O)COC(=O)CCNC(=O)c1ccc(Cl)cc1	15.2
O=C(NCc1ccccn1)c1ccc(Cn2c(=S)[nH]c3ccccc3c2=O)cc1	29.3
Cc1cc(C)c(NC(=O)CCn2nnc3ccccc32)c(C)c1	5.3
O=C(O)/C(=C\c1ccc(Cl)c([N+](=O)[O-])c1)c1ccc(S(=O)(=O)N2CCCCC2)s1	14.5
